VDR inhibitor = inhibitors of human vitamin D receptor; 400,000 compounds, 0.93% hits; Potency, µM, without a hit: max response, negative = inhibition, actives largely listed as inhibitors; AID 504847; P11473; VDR-SRC2-3 peptide fluorescence polarization, 2 h; active = well fitted inhibition curve with a large enough effect; inconclusive = small, poorly fitted or top-dose-only effect, or another doubt; inactive = no such curve, though single readings can be large or run the other way; also: series mostly up to about 120 µM
Target sequence (P11473 whole entry, looked up): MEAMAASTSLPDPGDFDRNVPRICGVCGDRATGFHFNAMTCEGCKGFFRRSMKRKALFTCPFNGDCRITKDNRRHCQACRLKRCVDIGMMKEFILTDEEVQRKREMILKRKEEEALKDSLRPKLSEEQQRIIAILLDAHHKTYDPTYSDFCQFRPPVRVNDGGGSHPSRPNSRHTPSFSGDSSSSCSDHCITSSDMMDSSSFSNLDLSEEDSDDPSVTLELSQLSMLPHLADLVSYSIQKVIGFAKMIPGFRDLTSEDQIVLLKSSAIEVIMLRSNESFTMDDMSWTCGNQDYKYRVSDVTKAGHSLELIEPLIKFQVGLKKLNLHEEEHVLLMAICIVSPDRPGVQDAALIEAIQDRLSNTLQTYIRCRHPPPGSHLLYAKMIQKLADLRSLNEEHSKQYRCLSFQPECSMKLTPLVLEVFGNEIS
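Two reagent solutions held at 4 deg C in the dark were dispensed, compounds pinned at 23 nl, and the mixture incubated 2 h at room temperature. Read-out: fluorescence polarization of VDR–SRC2-3 peptide binding.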
An asterisk follows results filed as active; ? = inconclusive; & = joins results of further samples; [ ] = dose if it differs, or a comment. % is scaled to controls: 0 for no effect and ±100 for the full control effect; potency is read from the fitted curve at half-maximal effect. Only part of the results is shown; count on the stated rates, not on these rows.

SMILES | VDR inhibitor
CN(C)[C@@H]1C(=O)C(C(N)=O)=C(O)[C@]2(O)C(=O)C3=C(O)c4c(O)ccc(Cl)c4[C@](C)(O)[C@H]3C[C@@H]12 | ?
CCN(CC)c1ccc(CC2C(=O)N(C)C(=O)N(C)C2=O)cc1 | -14.2%
N[C@@H](Cc1cc(I)c(O)c(I)c1)C(=O)O | ?
O=C1NC(=S)NC(=O)C1=Cc1c(Cl)cccc1Cl | 15.8µM*
NCCc1ccc(S(=O)(=O)F)cc1 | 5.9%&-0.9%
CCOC(=O)C1(CCc2ccccc2)CCN(C(C)CSC)CC1 (stereo not drawn) | 10.9%
COC(=O)C1=C(c2ccc(S(C)(=O)=O)cc2)C[C@@H]2CC[C@H]1N2C(=O)N1CCC(O)CC1 | -6.8%
O=C(N/N=C/c1c(O)n(Cc2ccccc2)c(=O)[nH]c1=O)c1ccccc1O | -15.4%
Fc1c(F)c(F)c(N2CCNCC2)c(F)c1F | -25.2%
Cc1ccccc1-[n+]1c(-c2ccccc2)cc(-c2ccccc2)cc1-c1ccccc1 | 14.9%
O=[N+]([O-])c1ccc(C(c2ccc([N+](=O)[O-])cc2)c2ccc([N+](=O)[O-])cc2)cc1 | -5.6%
Cc1ccc2nc(-c3ccncc3)cc(C(=O)N3CCC4(CC3)OCCO4)c2c1 | 9.2%
Cc1cccc(-n2c(O)c(/C=N/NC(=O)c3ccncc3)c(=O)[nH]c2=O)c1 | -3.9%
CCN1C[C@@]2(COC(=O)c3ccccc3N3C(=O)CC(C)C3=O)CC[C@H](OC)[C@]34C5C[C@@H]6[C@@H](OC)C[C@@](O)(C5[C@H]6OC)[C@@](O)(C13)[C@@H](OC)C24 (stereo partly drawn) | -0.4%
CCN(CC)c1ccc(CN2CC=C(c3ccc(F)cc3)CC2)cc1 | 5.0%
CC(C)(C)c1ccc(OC(=O)N2CCCCC2)cc1 | ?
COc1ccc(-n2c(O)c(C=NCCCn3ccnc3)c(=O)[nH]c2=O)cc1 | -6.9%
C[C@H](N)CN1CCc2ccc(Br)cc21 | -2.0%&0.8%
Clc1ccccc1NC1=NCCCS1 | 0.1%
c1cncc(CNCCN2CCNCC2)c1 | 4.1%
COC(=O)C1=C(c2ccc(OC)c(OC)c2)C[C@@H]2CC[C@H]1N2C(=O)NC(C)C | -10.8%
CCC(C)N1C(=O)/C(=C\c2cc3c4c(c2)CCCN4CCC3)C(=O)NC1=S (stereo not drawn) | ?
CC(C)(C)c1ccc(O)c(CN2CCN(c3ccccc3)CC2)c1 | 18.4%
N#CCN1CCN(c2ccc(C(F)(F)F)cc2)CC1 | -6.2%
CCCCn1c(C)c(C(=O)O)c2cc(OC)c3ccccc3c21 | -1.2%
COC(=O)C1=C(c2ccc(F)cc2OCc2ccccc2)C[C@@H]2CC[C@H]1N2C(=O)NC1CCCCC1 | -26.3%
O=C1NC(c2cccnc2)Nc2sc3c(c21)CCCC3 (stereo not drawn) | -16.3%
Cc1ccc(-n2c(O)c(C=NCCN(C)C)c(=O)[nH]c2=O)cc1 | -15.5%
O=C(Nc1ccc(Cl)cc1C(=O)c1ccccc1)c1ccco1 | 0.5%
O=c1[nH]c(=O)n(CCC2=CCCCC2)c(O)c1C=NCCN1CCNCC1 | -21.8%
CCCCn1c(O)c(C(C)=NC(Cc2c[nH]c3ccccc23)C(=O)OC)c(=O)[nH]c1=O (stereo not drawn) | -9.8%
Cn1ccnc1P(=S)(c1nccn1C)c1nccn1C | -17.4%
CCOP(=O)(OCC)C(NCc1ccccc1)c1ccc(Br)cc1 (stereo not drawn) | ?
C[C@]12CC[C@H](O)C[C@@H]1CC[C@@H]1[C@@H]2CC[C@]2(C)[C@@H](C(=O)O)C[C@@H]12 | -5.5%
NNC(=O)c1nc[nH]c1C(=O)Nc1ccc(Cl)cc1C(=O)c1ccccc1 | -6.1%
CC(Cc1ccccc1)N1C(=O)c2ccccc2C1=O (stereo not drawn) | -10.9%
Clc1cc(Cl)c(-c2cc(Cl)c(Cl)cc2Cl)cc1Cl | 11.4%
Cc1nc2cc([N+](=O)[O-])ccc2c(=O)n1-c1cccc(Br)c1 | -2.0%
CCCCOc1ccc(CN2CCN(CCO)CC2)cc1 | 2.0%
N#Cc1ccc(/C=C/C(=O)O)cc1 | -10.1%
Cc1nn(Cc2ccccc2)c(C)c1C(=O)NC1CCCc2ccccc21 (stereo not drawn) | 0.4%
CC(=O)OC1CC(OC(C)=O)[C@]2(C)C(CC(OC(C)=O)[C@]3(C)C2CC[C@@]2(C)C(c4ccoc4)C[C@H]4O[C@]432)C1(C)C (stereo partly drawn) | 1.0%
O=C(Nc1cccc(F)c1)N1CC[C@@]2(CCCN(C(=O)Oc3ccccc3)C2)C1 | 2.9%
CN(C)C(CNC(=O)Cc1c(Cl)cccc1Cl)c1ccccc1 (stereo not drawn) | -14.9%
CC(=NCC1CCCO1)c1c(O)n(C)c(=O)n(C)c1=O (stereo not drawn) | 1.0%
c1ccc(-c2ccncc2)cc1 | -0.9%
Cc1cccc(-n2c(/C=C/c3c(C)[nH]c4ccccc34)nc3ccccc3c2=O)c1 | -10.4%
O=[N+]([O-])c1ccc(NC2CCCC2)c2ccncc12 | -2.4%
CN1CCN(c2nc3ccccn3c(=O)c2C=C2C(=O)N(C)C(=O)N(C)C2=O)CC1 | -7.5%
Nc1c(C(=O)Nc2cccc(Br)c2)sc2nc3c(cc12)N1CCC3CC1 | -4.2%

Next section
SMILES | VDR inhibitor
ClCC1C(CCl)C2(Cl)C(Cl)=C(Cl)C1(Cl)C2(Cl)Cl (stereo not drawn) | 4.3%
O=C1NC(=O)N(CCC2=CCCCC2)C(=O)/C1=C\c1cccs1 | 44.7µM*
CN(C)C(=O)Oc1c(Cl)cc(Cl)c2cccnc12 | -4.3%
CCCC(C)C1(CC)C(=O)NC(=Nc2ccccc2OC)NC1=O (stereo not drawn) | 8.6%
COC12CCC3(CC1C(C)(O)C(C)(C)C)[C@H]1Cc4ccc(OC5OC(C(=O)O)[C@@H](O)C(O)[C@H]5O)c5c4[C@@]3(CCN1CC1CC1)C2O5 (stereo partly drawn) | -10.4%
CC(C(=O)OC1CC2CCC(C1)N2C)c1ccc(Br)cc1 (stereo not drawn) | 0.9%
O=C(C1CCC(=O)N1Cc1ccc(F)cc1)N1CCC2(CC1)OCCO2 (stereo not drawn) | 14.0%
COc1ccc(C)cc1NC1=NCCCS1 | 0.0%
CN1C(=O)N(C)C(=O)C2(Cc3cc(NC(=O)c4ccc(F)cc4)ccc3N3CCCC32)C1=O (stereo not drawn) | ?
C[N+](C)(C)c1ccccc1 | -20.7%
S=C(NCCc1ccccc1)NCCc1cnc[nH]1 | -0.3%
C[C@]12CCC3C(CC[C@H]4C[C@@H](O)CC[C@]34C)C1[C@H]1CN=N[C@H]1[C@@H]2O (stereo partly drawn) | 16.8%
CN1CCCC(C(=O)c2ccc(-c3ccccc3)cc2)C1 (stereo not drawn) | -1.9%
COC(=O)CSC1=NP(=S)(SCC(=O)OC)N2CCCC2=C1C#N (stereo not drawn) | 1.4%
COC(=O)C1=C(c2cccc(C#N)c2)C[C@@H]2CC[C@H]1N2C(=O)NCCOc1ccccc1 | 6.6%
CCc1ccc(OCC(=O)N2CCN(Cc3ccc4c(c3)OCO4)CC2)cc1 | 3.7%
COC(=O)C1(C(=O)O)Cc2cc([N+](=O)[O-])ccc2N2CCCC21 (stereo not drawn) | -1.0%
CN1C[C@H](C(=O)N[C@]2(C)O[C@]3(O)[C@H]4CCCN4C(=O)[C@H](Cc4ccccc4)N3C2=O)C[C@H]2c3cccc4[nH]cc(c34)C[C@@H]21 | 2.3%
CCS(=O)(=O)C(C)(C)S(=O)(=O)CC | 6.7%
Cn1c(=O)cc(OCC(=O)N2CCN(C3CCCCC3)CC2)c2ccccc21 | -11.4%
COC(=O)C1=C(c2cc3ccccc3o2)C[C@@H]2CC[C@H]1N2C(=O)N1CCCC1 | -5.5%
C[C@@H]1CC2C3CC=C4C[C@@H](O)CC[C@]4(C)C3CC[C@]2(C)[C@H]1O (stereo partly drawn) | 3.1%
C1CC[C@H]([C@@]23C[C@H](C[C@H]4CCCN[C@H]42)[C@@H]2CCCCN2C3)NC1 | 1.4%
CCN1CCN(C(=O)COc2ccc3oc4c(c3c2)CCCC4)CC1 | 3.2%
O=C(NCc1cccnc1)NC1CCCCC1 | -11.8%
CCC1=Nc2cc(C(=O)N3CCC4(CC3)OCCO4)ccc2Sc2ccc(C)cc21 | 7.6%
COC(=O)C1=C(c2cc3ccccc3s2)C[C@@H]2CC[C@H]1N2C(=O)NCCS(C)=O (stereo partly drawn) | -16.0%
Cc1cc(N(CCCl)CCCl)ccc1/C=N/N=C(\N)c1cnccn1 | 13.2%
COc1cccc(-c2sc3ccccc3c2-c2ccc(OCCN3CCOCC3)cc2)c1 | -3.3%
CCCc1nnc(NC(=O)CCC(=O)N2CCC3(CC2)OCCO3)s1 | -16.6%
CNC(=O)Oc1ccc2c(c1)C(=O)c1ccccc1CO2 | -6.4%
CC1(C)C(=O)CC[C@@]2(C)C1=CCC1C2CC[C@]2(C)C(=O)CCC12 (stereo partly drawn) | 16.4%
COC(=O)C1=C(c2ccc(F)cc2F)C[C@@H]2CC[C@H]1N2C(=O)NC1Cc2ccccc2C1 | -19.6%
N#CCCn1cc(C(=O)Nc2ccc([N+](=O)[O-])cc2)c(-c2ccc3c(c2)OCCO3)n1 | ?
COc1ccc(CCNCc2ccc(Br)cc2)cc1OC | 4.6%
CN1C(=O)NC(=O)/C(=C/c2ccc([N+](=O)[O-])o2)C1=O | 70.8µM*
Oc1ccccc1Cl | -7.9%
COc1ccc(C(O)P(=O)(Oc2ccccc2)Oc2ccccc2)cc1 (stereo not drawn) | -0.9%
NCCCCCC(=O)OC1N=C(c2ccccc2Cl)c2cc(Br)ccc2NC1=O (stereo not drawn) | -12.8%
Cc1cccc(OCCn2cccc2/C=C2/C(=O)NC(=O)N(Cc3ccco3)C2=O)c1 | 7.9%

Looked up by compound from above, 6 records:
SMILES | VDR inhibitor
N#CCCn1cc(C(=O)Nc2ccc([N+](=O)[O-])cc2)c(-c2ccc3c(c2)OCCO3)n1 | ?
Cc1cccc(OCCn2cccc2/C=C2/C(=O)NC(=O)N(Cc3ccco3)C2=O)c1 | 7.9%
CC1(C)C(=O)CC[C@@]2(C)C1=CCC1C2CC[C@]2(C)C(=O)CCC12 (stereo partly drawn) | 16.4%
CNC(=O)Oc1ccc2c(c1)C(=O)c1ccccc1CO2 | -6.4%
Oc1ccccc1Cl | -7.9%
NCCCCCC(=O)OC1N=C(c2ccccc2Cl)c2cc(Br)ccc2NC1=O (stereo not drawn) | -12.8%

Next records:
SMILES | VDR inhibitor
CNC(C(=O)c1ccccc1)C(OC(C)C)c1ccc(Cl)cc1 (stereo not drawn) | 3.9%
COc1ccc(CNCCc2c[nH]c3ccccc23)c(OC)c1OC | 7.3%
CCC(=O)Nc1ccc(N2CCN(CC)CC2)c(Cl)c1 | 3.2%
CN(C)C(=O)Oc1cccc(NC(=O)c2ccccc2C(F)(F)F)c1 | -10.2%
C[C@]12CC[C@H](O)CC1C(=O)CC1C2CC[C@@]2(C)C1CC[C@@H]2O (stereo partly drawn) | 9.9%
C[C@@H]1C(=O)O[C@@H]2[C@H](O)C34[C@@H]5OC(=O)C3(O[C@H]3OC(=O)[C@H](O)C34[C@H](C(C)(C)C)[C@H]5O)[C@@]12O (stereo partly drawn) | -7.8%
O=c1[nH]c2ccccc2o1 | -6.8%
COP(=O)(CC(=O)O)c1ccccc1 (stereo not drawn) | 8.1%
CC12CN3CN(C1)CC(c1ccccc1)(C3)C2=O | 13.0%
Cc1ncc2n1-c1ccc(Cl)cc1C(c1ccccc1F)=NC2O (stereo not drawn) | 10.8%

3 structures out of the list, arranged by molecular weight, largest number first.
SMILES | VDR inhibitor
C[C@@H]1C(=O)O[C@@H]2[C@H](O)C34[C@@H]5OC(=O)C3(O[C@H]3OC(=O)[C@H](O)C34[C@H](C(C)(C)C)[C@H]5O)[C@@]12O (stereo partly drawn) | -7.8%
CN(C)C(=O)Oc1cccc(NC(=O)c2ccccc2C(F)(F)F)c1 | -10.2%
CC12CN3CN(C1)CC(c1ccccc1)(C3)C2=O | 13.0%

Other results follow.
SMILES | VDR inhibitor
Cc1ncc(CN2CCCC(C(=O)c3ccc(C(C)(C)C)cc3)C2)s1 (stereo not drawn) | -0.4%
CCN1C(=O)C(=C/C=C/c2ccco2)C(=O)N(CC)C1=S | 84.6%[activator]
Brc1cccc(CNCCc2ccc3c(c2)OCO3)c1 | 0.6%
O=C1CCC[C@H]2[C@@H]3CCCN4CCC[C@H](CN12)[C@H]34 | -0.8%
C=C1C(=O)O[C@@H]2C[C@@H](C)[C@@H]3C=CC(=O)[C@@]3(C)[C@@H](O)[C@H]12 | ?
Cc1cc(C)cc(OCCOc2cccc(C=C3C(=O)NC(=O)NC3=O)c2)c1 | ?
CCN(CC)c1ccc(NC(=O)c2cccc(C)c2)cc1S(=O)(=O)Nc1ccccc1OC | 50.1µM*
CN(C)C(=O)Oc1noc2cc(Cl)ccc12 | 1.2%
Clc1ccc(C(c2ccc(Cl)cc2)n2cc[n+](CC(OCc3ccc(Cl)cc3Cl)c3ccc(Cl)cc3Cl)c2)cc1 (stereo not drawn) | 24.3%&48.0%
CC1([N+](=O)[O-])COP(=O)(NC2CCCC2)OC1 (stereo not drawn) | -15.5%
CCN1C[C@@]2(COC)C3[C@@H](OC)[C@H]4[C@@H]1[C@@]3(C1C[C@H]3[C@H](OC(C)=O)C1[C@]4(OC(C)=O)C[C@H]3OC)[C@@H](OC)C[C@H]2OC(C)=O (stereo partly drawn) | 2.9%
CCOC(=O)C1=C(C)OC(N)=C(C(=O)OCC)C12C(=O)Nc1ccc(Br)cc12 (stereo not drawn) | -3.0%
Cc1ccccc1N1C(=O)CC(=O)NC1=O | -7.5%
CCCNC(=O)c1c(N)n(Cc2ccc3c(c2)OCO3)c2nc3ccccc3nc12 | -13.6%
